# D2 PAM – human D2 receptor positive allosteric modulation. potentiation, % (test concentration not listed). 360,000 compounds, 0.23% hits. DiscoveRx D2 beta-arrestin cells, luminescence, 90 min; 100% = 57 uM dopamine signal; active = potentiation of 50% or more; inconclusive = 30% to 50%; inactive = 30% or less;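 also: compound concentration not given in the record; tested on top of an EC20 dose of dopamine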
#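 PathHunter beta-arrestin assay in DiscoveRx D2 cells. Compounds were added with an EC20 of dopamine (50 nM final) for 90 min at 37 deg C. Luminescence was read 1 h after detection reagent, with 57 uM dopamine as the EC100 control.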
# Six1-Eya2 inh – Six1/Eya2 interaction inhibition. AlphaScreen GST-Six1/His-Eya2 binding, biochemical; active compounds read low; control for the full effect not named in the record. activity change, % (concentration not given with the values). 360,000 compounds, 0.56% hits. AID 651725; in the data active = activity change below about -65%; inconclusive = about -30% to -65%; inactive = above about -30%; also: % is scaled to controls: 0 for no effect and ±100 for the full control effect
# Target sequence (O00167 whole entry, looked up): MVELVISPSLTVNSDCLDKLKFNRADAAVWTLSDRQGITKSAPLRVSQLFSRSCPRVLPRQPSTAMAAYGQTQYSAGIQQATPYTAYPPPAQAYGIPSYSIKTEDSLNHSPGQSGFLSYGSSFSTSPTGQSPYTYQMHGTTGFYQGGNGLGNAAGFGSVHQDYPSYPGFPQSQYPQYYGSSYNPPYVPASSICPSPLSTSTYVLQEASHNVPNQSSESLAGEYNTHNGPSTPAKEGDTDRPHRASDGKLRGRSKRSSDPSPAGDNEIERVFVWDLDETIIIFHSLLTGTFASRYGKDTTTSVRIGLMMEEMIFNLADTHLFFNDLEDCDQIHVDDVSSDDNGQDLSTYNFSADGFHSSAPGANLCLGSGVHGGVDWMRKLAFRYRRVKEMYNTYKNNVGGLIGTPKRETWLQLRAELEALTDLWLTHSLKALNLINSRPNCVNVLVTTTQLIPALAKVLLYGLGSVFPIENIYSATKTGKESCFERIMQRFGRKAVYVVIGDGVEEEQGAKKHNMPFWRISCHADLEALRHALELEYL
# Target sequence (Q15475 whole entry, looked up): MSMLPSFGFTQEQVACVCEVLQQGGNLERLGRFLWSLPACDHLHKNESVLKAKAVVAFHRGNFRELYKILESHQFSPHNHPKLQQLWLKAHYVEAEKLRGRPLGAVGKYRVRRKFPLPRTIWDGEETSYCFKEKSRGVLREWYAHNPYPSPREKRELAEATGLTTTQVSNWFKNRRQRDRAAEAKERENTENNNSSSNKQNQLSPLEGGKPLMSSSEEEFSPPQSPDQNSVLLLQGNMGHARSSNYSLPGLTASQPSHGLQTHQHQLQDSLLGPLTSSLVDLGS
#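 Homogeneous AlphaScreen proximity assay pairing GST-Six1 with His-tagged Eya2 (added as 5X mix: 250 nM and 500 nM) in 50 mM Tris pH 8.0, 300 mM NaCl, 1 mM TCEP. Glutathione donor and nickel acceptor beads; 1 h, 37 °C, dark.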
# PINK1 modulator – changes PINK1 expression; AID 624263; Potency, µM (highest dose often 76.6 µM), without a hit: top-dose activation (PINK1 increase), most hits filed as activators; PINK1 immunofluorescence, high-content cytometry, 24 h; 410,000 compounds, 0.2% hits; active = well fitted activation curve with a large enough effect; inconclusive = small, poorly fitted or top-dose-only effect; inactive = flat fitted curve, though single readings scatter; cell line not stated here;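 also: potency is read from the fitted curve at half-maximal effect; % of control where 0% means no effect; nearly all actives have a fitted effect of over 65% in size; a mitochondrial uncoupler was the plate control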
#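 Measures PINK1 amount and localization on or inside mitochondria by immunofluorescence. Stable cells get compounds at 5 concentrations for 24 hours before fixation and staining; CCCP controls included.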
# TRPML1 agonist – human mucolipin-1 channel agonism; activation, % (no concentration beside the values); TRPML1-expressing cells, Ca2+ dye fluorescence, FDSS; host cell line not named in the record; reference of the full effect not given here; 410,000 compounds, 0.12% hits; AID 624414; Q9GZU1; in the data active = activation above about 50%; inconclusive = about 30% to 50%; inactive = below about 30%; also: 0% is about no effect; the text of the record puts the active cut at 80%
#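 Calcium fluorescence on an FDSS kinetic reader gave the read-out. Tet-induced TRPML1-DL cells were plated overnight, dye-loaded (Ca8 with quencher, 45-90 min, room temperature, dark), then read 110 s after compound addition, and again 110 s after 4uM final 54-4 (EC80).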
# D2 agonist – human D2 receptor agonism in beta-arrestin assay; DiscoveRx PathHunter D2 beta-arrestin, luminescence, 90 min; 100% = 57 uM dopamine signal; activation, % (concentration not given with the values); 360,000 compounds, 0.084% hits; AID 624465; in the data active = activation above about 40%; inconclusive = about 15% to 40%; inactive = below about 15%; also: the text of the record calls up to 30% inactive
#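 Agonist mode: compounds alone added to overnight-plated D2 PathHunter cells for 90 min at 37 C, with 57 uM final dopamine (EC100) defining full response. Beta-arrestin recruitment detected by chemiluminescent reagent, read after 1 h at ambient temperature.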
# TRPML1 blocker – blocks the human TRPML1 channel | TRPML1-inducible cells, Ca2+ dye fluorescence, FDSS; active compounds read low; inhibition of EC80 agonist-evoked calcium signal | AID 624415 | activity change, negative = inhibition, % (test concentration not listed) | Q9GZU1 | 390,000 compounds, 0.02% hits; in the data active means activity change below about -50%; inconclusive means about -30% to -50%; inactive means above about -30%;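 also: stimulus is agonist 54-4 at its EC80 concentration; % is scaled to controls: 0 for no effect and ±100 for the full control effect; compound concentration not given in the record; the text of the record puts the active cut at -80%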
#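 Calcium fluorescence in TRPML1-DL cells induced overnight with Tet: a 110 s read after compound pin addition, then a 110 s antagonist read after challenge with 54-4 at 4 uM final (EC80).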
# Active calls of the source: *; u = inconclusive; x = no result given; & = joins results of further samples; [ ] = dose if it differs, or a comment.
canonical_smiles	D2 PAM	Six1-Eya2 inh	PINK1 modulator	TRPML1 agonist	D2 agonist	TRPML1 blocker
O=C(NNC(=O)c1ccccn1)c1ccc(OC(F)F)cc1	-4	-84*	-0.6%	1.6	-4.4	7
COc1ccc(CCNC2=CC(=O)CC(C)(C)C2)cc1	0	1	0.2%	11	0.2	28
Cc1c(Cl)cccc1NC(=O)COC(=O)c1c2c(nc3ccccc13)CCN(Cc1ccccc1)C2	-28	-7	-2.4%	1.1	0.8	1
CC(C)(C)C1CCc2c(sc(NC(=O)c3cccc(Cl)c3)c2C(=O)NCc2ccco2)C1 (stereo unspecified)	x	x	-0.6%	0.2	x	-4
COc1ccccc1OCCOc1ccc(/C=C2/C(=N)N3OC(C)=CC3=NC2=O)cc1OC	-24	3	9.0%	0.7	-1.4	-12
Cc1[nH]cnc1CSCCN	-6	-18	4.1%	0.4	-0.2	28
C=CCN1C(=O)/C(=C2/Sc3ccc(OC)cc3N2CC)SC1=S	-21	1	u	-0.6	-4.1	-1
CCn1nc(C(=O)OC2CCOC2=O)c2ccccc2c1=O (stereo unspecified)	-18	5	0.3%	-1.1	-3.4	-6
CC(NC(=O)[C@H](C)NC(=O)C1CC(=O)N(c2ccc3c(c2)OCO3)C1)c1ccccc1 (stereo partly specified)	-11	2	2.2%	-0.9	0.2	12
Cn1cc(Cl)cc(C(=O)Nc2ccccc2)c1=O	-11	5	0.6%	2.3	-0.6	6
COCCCNc1oc(-c2ccccc2OC)nc1C#N	-1	-6	-1.9%[38.3 µM]	0.6	0.0	23
CCN(CC)Cc1c(C(=O)N/N=C/c2ccco2)nnn1-c1nonc1N	-15	3	-0.5%	1.0	-1.1	-4
Cc1ccc(S(=O)(=O)CCSC(=N)N)cc1	-15	-5	1.3%	2.1	-4.6	-3
Cc1[nH]n(-c2ccc(F)cc2)c(=O)c1C=Nc1ccc(S(=O)(=O)N(C)C)cc1	-1	-4	1.5%	-1.2	-5.6	-8
Cc1ccc(S(=O)(=O)Nc2cc(=O)[nH]c(SCC(=O)Nc3ccccc3C(F)(F)F)n2)cc1	-2	0	1.9%	0.6	3.4	8
CCC12C(=O)C(CC)(C(c3ccccc3)=C1c1ccccc1)[C@@H]1C(=O)N(c3ccccc3)C(=O)C12 (stereo partly specified)	-1	9	1.6%	0.0	-2.3	-11
NC(=O)c1ccccc1OCCOc1ccc(Br)cc1	-2	-3	-2.1%	2.6	-0.4	10
CCOc1ccc2nc(N/C(N)=N/C(=S)Nc3cccc(OC)c3)nc(C)c2c1	-9	-4	10%	0.0	-6.6	-4
Cc1cc(C)nc(N2CCCC(C(=O)NCc3ccccc3F)C2)n1 (stereo unspecified)	-4	4	0.5%	1.6	5.5	-18
CN(C)CCC=C1c2ccccc2CCc2ccccc21	-36	-13	-0.4%	-0.5	-4.0	7

# Structures listed so far containing four or more nitrogen atoms:
canonical_smiles	D2 PAM	Six1-Eya2 inh	PINK1 modulator	TRPML1 agonist	D2 agonist	TRPML1 blocker
CCN(CC)Cc1c(C(=O)N/N=C/c2ccco2)nnn1-c1nonc1N	-15	3	-0.5%	1.0	-1.1	-4
Cc1[nH]n(-c2ccc(F)cc2)c(=O)c1C=Nc1ccc(S(=O)(=O)N(C)C)cc1	-1	-4	1.5%	-1.2	-5.6	-8
Cc1ccc(S(=O)(=O)Nc2cc(=O)[nH]c(SCC(=O)Nc3ccccc3C(F)(F)F)n2)cc1	-2	0	1.9%	0.6	3.4	8
CCOc1ccc2nc(N/C(N)=N/C(=S)Nc3cccc(OC)c3)nc(C)c2c1	-9	-4	10%	0.0	-6.6	-4
Cc1cc(C)nc(N2CCCC(C(=O)NCc3ccccc3F)C2)n1 (stereo unspecified)	-4	4	0.5%	1.6	5.5	-18

# Going on with the list:
canonical_smiles	D2 PAM	Six1-Eya2 inh	PINK1 modulator	TRPML1 agonist	D2 agonist	TRPML1 blocker
CC(C)(C)OC(=O)C[C@H]1C/C=C\C[C@@H](CC(=O)N[C@@H](CO)Cc2ccccc2)C(=O)NC[C@@H](c2ccccc2)OC1=O	-5	-8	22%	0.0	-1.0	-14
COc1ccc(NC2SC(=O)N(CC(=O)O)C2=O)cc1 (stereo unspecified)	-6	1	-0.4%	0.0	-0.6	-12
CS(=O)(=O)c1ccc(-n2c(=O)n(Cc3ccccc3)c(=O)c3[nH]cnc32)cc1	-9	-1	0.5%	1.5	-6.2	0
O=C(NCc1ccccc1Cl)C(=O)NCC1CCCN1S(=O)(=O)c1cccs1 (stereo unspecified)	-6	3	1.7%	-0.6	-1.2	8
CN(C)NC(=S)NC1CC2CCC1C2 (stereo unspecified)	-3	3	-3.0%	2.7	-3.4	4
CC(C)(C)OC(=O)N1CCC2(CC1)C(C#N)=C(N)OC1=C2C(=O)CCC1	-11	-1	-0.2%	-0.2	3.7	-12
NC(=O)C1(N2CCCCC2)CCN(C(=O)c2ccc(-n3cnnn3)cc2)CC1	3	0	0.5%	-0.6	-1.8	16
CCc1cn(C2CC(O)C(CO)O2)c(=O)[nH]c1=O (stereo unspecified)	2	4	1.1%	2.2	2.8	-8
COc1ccccc1NC(=O)C1=C(C)NC(=O)NC1c1cccc(OC)c1OC (stereo unspecified)	3	16	0.4%	-0.4	-1.8	-11
Cc1ccc(OCC(=O)NCCCNC(=O)c2cccnc2)cc1C	-4	0	-2.7%	0.6	-1.9	-1
CCOC(=O)CN(C(=O)c1snc(C(N)=O)c1N)C(C(=O)NC1CCCCC1)c1ccc(F)cc1 (stereo unspecified)	-5	8	0.5%	0.6	-5.0	2
COCCN(C(=O)CSc1nnc(-c2ccccc2C)n1C)c1c(N)n(Cc2ccccc2)c(=O)[nH]c1=O	-5	3	-2.3%	0.2	0.5	-4
CC(C)N=C1NN=C(c2ccc(F)cc2)CS1	-22	-4	-0.9%	1.1	-13	23
O=C(CNC(=O)c1ccco1)OCC(=O)c1ccc(Br)cc1	-12	3	1.0%	-0.1	-6.2	-14
COc1ccc(/C=N/NC(=O)CCN2CCCCC2c2cccnc2)cc1Cn1cc([N+](=O)[O-])cn1 (stereo unspecified)	-20	-6	1.9%	1.4	-5.5	9
CCOc1ccc2nc(N3CCCC(C(=O)NCCCN4CCCCC4)C3)sc2c1 (stereo unspecified)	-17	-1	3.6%	-1.0	-0.1	0
O=C(Nc1ccc(Cl)cc1)/C(=C/c1cccc(O)c1)c1nc2ccccc2s1	-21	2	3.8%	1.8	-1.7	-1
Cc1noc(C)c1COc1ccccc1C(=O)N(C)Cc1ccc(F)cc1	15	2	0.9%	-0.7	-0.8	4
O=C(O)CCN1CCOCC1	-4	6	7.0%	-0.7	-4.4	0
O=C(NCc1ccccc1Cl)c1ccc(NC(=O)N2CCCCc3ccccc32)cc1	x	x	0.2%	1.3	x	4

# (list continues)
canonical_smiles	D2 PAM	Six1-Eya2 inh	PINK1 modulator	TRPML1 agonist	D2 agonist	TRPML1 blocker
CC(NC(=O)c1cccnc1)C(=O)O (stereo unspecified)	-9	0	0.8%	-0.3	-5.9	-10
CCCn1c(=O)c(C(=O)Nc2ncccc2O)c(O)c2ccccc21	-2	5	1.0%	-0.4	-1.4	1
COc1ccccc1NC(=O)C1CCCN(S(=O)(=O)c2cnc[nH]2)C1 (stereo unspecified)	-11	-1	0.9%	-0.4	-3.1	20
Cc1ccc(NC(=O)CNCc2ccccc2Cl)cc1S(=O)(=O)N(C)C	-13	-3	3.1%	0.5	3.4	34
CCC(C)Sc1cccc(-c2nc3ccc(C)cn3c2NC2CCCCC2)c1 (stereo unspecified)	-9	-8&-18	u	0.6&-0.4	0.5	-3
Cc1ccc(C(=O)COC(=O)CCc2nc3ccccc3[nH]c2=O)cc1C	-12	3	2.7%	0.1	-2.5	7
O=C(CCC(=O)N1CCCCC1)Nc1ccc(Cl)c(Cl)c1	-21	9	3.1%	-0.5	-3.7	-1
CCSc1nnc(NC(=O)C2Cc3ccccc3CN2S(=O)(=O)CC)s1 (stereo unspecified)	0	u	1.3%	-0.1	-5.6	-4
CC(C)c1ccc(N2C=Nc3ccc(C(C)C)cc3C2)cc1	-6	1	-1.9%	0.5	-3.9	29
CNC(=O)NC(=O)COc1c(F)c(F)cc(F)c1F	-2	-14	2.7%	0.7	-0.4	14
COCCNC(=O)C(c1ccc(OC)cc1)N(Cc1ccco1)C(=O)CCC(=O)Nc1ccccn1 (stereo unspecified)	2	6	3.6%	0.1	7.2	14
Cc1noc(C)c1CSCC(=O)Nc1ccc(OC(F)F)c(Cl)c1	21	-3	5.2%	-0.3	-0.5	4
COc1ccccc1CC(=O)Nc1sc2c(c1C(N)=O)CCCC2	-6	-3	2.7%	0.0	-0.1	-1
CN(CC(=O)Nc1ccccc1Cl)C(=O)c1ccc(N2CCCCCC2)c([N+](=O)[O-])c1	-3	-24	-0.8%	2.7	-0.4	14
CC(C)(C)C(=O)NC(=S)Nc1ccccc1C(=O)NC1CCCCC1	-19	10	-0.2%	-0.6	-6.8	10
COC(=O)c1cn(CCOc2ccccc2OC)c2ccccc12	1	0	0.2%	2.4	-2.5	11
COc1ccc(/C=C/C(=O)Nc2ccc(-n3nncc3-c3ccccc3)cc2)cc1OC	-19	-19	-2.2%	2.1	5.6	20
COc1ccc(C(=O)C(C)OC(=O)c2sc(C)nc2C)cc1 (stereo unspecified)	-2	1	-1.1%	0.4	2.2	-1
Cc1ccc(NC(=O)CSc2nc3ccc(Nc4nc(N5CCOCC5)nc(N5CCOCC5)n4)cc3s2)cc1	-6	0	-0.7%	0.3	3.8	2
O=C(Nc1nnc(CCc2ccccc2)s1)C1CCCO1 (stereo unspecified)	-15	4	1.3%	0.2	-3.4	24

# Continued:
canonical_smiles	D2 PAM	Six1-Eya2 inh	PINK1 modulator	TRPML1 agonist	D2 agonist	TRPML1 blocker
Cc1ccc(S(=O)(=O)CC(=O)c2cc(C)c(O)c(C)c2)cc1	-10	-3	0.7%	-0.5	-4.6	13
O=C(Cc1ccc2ccccc2c1)NC(Cc1ccccc1)C(=O)O (stereo unspecified)	x	7	-0.9%	-0.1	-1.3	14
N#CC1(c2ccccc2)CCCN1C(=O)c1ccc(Br)o1 (stereo unspecified)	-9	3	u	0.3	-0.6	-15
CCCC(=O)Nc1c(-c2ccccc2)[nH][nH]c1=O	-7	6	0.1%	-0.1	-3.9	x
O=C(Nc1nc2ccccc2[nH]1)C1CC1	3	0	4.8%	-0.5	2.2	11
COc1ccc(C(=O)COC(=O)CCCC(=O)Nc2cc(C(F)(F)F)ccc2Cl)cc1	x	x	-1.1%	1.2	x	19
Oc1ccc(-n2nnnc2SCc2c(F)cccc2Cl)cc1	-3	-4	0.2%	3.2	6.2	10
CCn1c2ccccc2c2cc(NC(=O)CSc3nnc(C4CC4)n3Cc3ccco3)ccc21	4	-10	-1.0%	3.0	0.8	-1
N#CCCn1cc(/C=N/O)c(-c2cccc([N+](=O)[O-])c2)n1	0	6	-0.7%	0.3	0.3	3

# High-throughput results deposited in PubChem by National Center for Advancing Translational Sciences (NCATS).
